D2 agonist – Beta-Arrestin HTS for Positive Allosteric Modulators of the Human D2 Dopamine Receptor: Agonists; actives 0.084% (n = 360,000); AID 624465, 2012; activation, % (concentration not given with the values); D(2) dopamine receptor (Homo sapiens), P14416; DiscoveRx PathHunter D2 beta-arrestin, luminescence, 90 min; 100% = 57 uM dopamine signal; in the data active = activation above about 40%; inconclusive = about 15% to 40%; inactive = below about 15%; note: compound concentration not given in the record; the text of the record calls up to 30% inactive
Target sequence (P14416 whole entry, looked up): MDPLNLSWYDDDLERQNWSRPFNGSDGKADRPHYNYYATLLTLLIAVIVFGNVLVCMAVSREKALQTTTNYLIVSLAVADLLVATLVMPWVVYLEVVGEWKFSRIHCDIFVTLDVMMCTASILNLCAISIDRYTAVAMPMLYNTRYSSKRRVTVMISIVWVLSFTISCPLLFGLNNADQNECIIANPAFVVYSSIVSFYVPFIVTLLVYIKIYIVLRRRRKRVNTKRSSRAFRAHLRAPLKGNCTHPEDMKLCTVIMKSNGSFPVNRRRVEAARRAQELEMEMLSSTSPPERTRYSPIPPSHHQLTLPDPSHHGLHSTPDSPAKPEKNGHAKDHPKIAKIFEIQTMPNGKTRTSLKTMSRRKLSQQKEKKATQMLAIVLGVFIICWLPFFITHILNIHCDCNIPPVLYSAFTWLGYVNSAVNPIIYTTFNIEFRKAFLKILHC
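DiscoveRx PathHunter D2 beta-arrestin cells (2,100/well) attached overnight, then compound-stimulated 90 min at 37 C in HBSS/10 mM HEPES/0.1% Tween-20 buffer; beta-galactosidase complementation read by luminescence after 1 h at ambient temperature. Dopamine 57 uM final (EC100) as control.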
D2 potentiator – Beta-Arrestin HTS for Positive Allosteric Modulators of the Human D2 Dopamine Receptor: Potentiators | AID 624464, 2012 | potentiation, % (no concentration beside the values) | DiscoveRx D2 beta-arrestin cells, luminescence, 90 min; 100% = 57 uM dopamine signal | D(2) dopamine receptor (Homo sapiens), P14416 | actives 0.23% (n = 360,000); active = potentiation of 50% or more; inconclusive = 30% to 50%; inactive = 30% or less;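 note: compound concentration not given in the record; tested on top of an EC20 dose of dopamine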
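PathHunter beta-arrestin assay in DiscoveRx D2 cells. Compounds were added with an EC20 of dopamine (50 nM final) for 90 min at 37 deg C. Luminescence was read 1 h after detection reagent, with 57 uM dopamine as the EC100 control.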
gsp antagonist – qHTS for Antagonists of gsp, the Etiologic Mutation Responsible for Fibrous Dysplasia/McCune-Albright Syndrome: qHTS; gsp-mutant cells, cAMP HTRF, 30 min; control for the full effect not named in the record; Potency, µM (titrated, usually from 76.9 µM), without a hit: at the highest dose activity change, negative = inhibition, most hits filed as inhibitors; actives 0.4% (n = 340,000); active = falling curve of any shape with a large fitted effect; inconclusive = falling curve, mostly with a smaller effect; inactive = flat or rising curve; cell line not stated here;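 note: intracellular cAMP measured with PDE inhibitor Ro 20-1724 present during compound exposure; potency is the fitted concentration of half-maximal effect; % is set by controls: 0 for no effect and ±100 for the full control effect; nearly all actives have a fitted effect of over 65% in size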
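Cells in G418 medium, seeded 16-24 h, 37C; buffer exchange to DPBS + 1 mM CaCl2, 0.5 mM MgCl2, 0.05% BSA; cpds in DMSO + […] (300 uM stock), 30 min 37C; HTRF cAMP detection.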
Six1-Eya2 inh – qHTS Assay for Inhibitors of the Six1/Eya2 Interaction | AlphaScreen GST-Six1/His-Eya2 binding, biochemical; stronger effect = lower value; control for the full effect not named in the record | AID 651725, 2012 | activity change, % (test concentration not listed) | actives 0.56% (n = 360,000) | Homeobox protein SIX1 (Homo sapiens) + Protein phosphatase EYA2 (Homo sapiens), …; in the data active = activity change below about -65%; inconclusive = about -30% to -65%; inactive = above about -30%; note: % is set by controls: 0 for no effect and ±100 for the full control effect; compound concentration not given in the record
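Compounds are tested against tagged Six1 and Eya2 proteins bridged by glutathione donor and nickel acceptor beads; after a one-hour incubation at 37 °C without light, AlphaScreen emission is recorded.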
gsp ag – qHTS for Agonist of gsp, the Etiologic Mutation Responsible for Fibrous Dysplasia/McCune-Albright Syndrome: qHTS. Potency, µM (doses to about 76.9 µM), for inactives: top-dose activation (cAMP increase), most hits filed as activators. actives 0.13% (n = 340,000). gsp mutant cells, cAMP HTRF, 30 min; control for the full effect not named in the record; active = well fitted activation curve with a large enough effect; inconclusive = small, poorly fitted or top-dose-only effect, or another doubt; inactive = no such curve, though single readings can be large or run the other way; cell line not stated here;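 note: phosphodiesterase inhibitor Ro 20-1724 added with compounds to block cAMP breakdown; potency is the fitted concentration of half-maximal effect; nearly all actives have a fitted effect of over 60% in size; about a fifth of the inactives were tested at one dose only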
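Cells stably selected in G418 were plated at 2000/well, grown 16-24 hr, then given compounds in DMSO with the PDE inhibitor […] (300 uM solution added) for 30 min at 37C; cAMP was read by HTRF.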
CtBP-E1A blk – qHTS Assay for Inhibitors of the CtBP/E1A Interaction | AlphaScreen GST-E1A/His-CtBP binding, 1536-well; stronger effect = lower value; control for the full effect not named in the record | activity change, % (no concentration beside the values) | AID 651724, 2012 | CtBP / adenovirus E1A interaction (AlphaScreen) | actives 0.49% (n = 340,000); in the data active means activity change below about -65%; inconclusive means about -30% to -65%; inactive means above about -30%; note: % is set by controls: 0 for no effect and ±100 for the full control effect; compound concentration not given in the record
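GST-E1A and His-tagged CtBP (125 nM each as 5X stock) were preincubated with pin-transferred compound for 2 h at 37 °C in the dark, then glutathione donor and nickel acceptor beads were added for 1 h before AlphaScreen reading.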
* hit, by the source's call; ? = inconclusive; . = not tested or not shown; [ ] = dose if it differs, or a comment.

SMILES | D2 agonist | D2 potentiator | gsp antagonist | Six1-Eya2 inh | gsp ag | CtBP-E1A blk
Clc1ccc(OCCn2cnc3ccccc32)c(Cl)c1 | -1.1 | -3 | -20% | 4 | 2% | 2
COC(=O)C(C)Oc1ccc2c3c(c(=O)oc2c1)CCCCC3 (centres undefined) | -2.2 | -16 | -29% | 8 | ? | 5
Cc1[nH]c2ccccc2c1C(=O)C(=O)N1CC=C(c2ccccc2)CC1 | -6.2 | -12 | ? | -13 | ? | -7
COc1ccc(N(C(=O)C2CCCCC2)C2C=CS(=O)(=O)C2)c(OC)c1 (centres undefined) | -0.4 | -1 | -15% | 2 | -34% | 4
O=c1c(-c2ccc(Oc3ccccc3)cc2)[n+]([O-])c2ccccc2n1OCc1ccccn1 | -2.2 | 13 | 4% | 12 | -21% | 25
Cc1ccc(CNC(=O)COC(=O)c2cc(C)oc2C)cc1 | 0.0 | -1 | 11% | -1 | -37%[inhibitor] | 3
CCOC(=O)c1[nH]c2ccccc2c1NC(=O)c1ccc(Br)o1 | -2.9 | -2 | -1% | -18 | -8% | -26
Cc1nccn1CCN(C)Cc1cn(Cc2ccccc2)nc1-c1ccc2c(c1)OCO2 | -1.4 | -8 | 4% | -1 | 8%[15.4 µM] | .
COc1ccc(C)cc1-n1nnnc1SC/C(O)=C(\C#N)c1nc2ccccc2[nH]1 | 1.0 | -3 | -15% | -9 | -2% | -17
O=C(C1CC1)N1N=C(c2ccccc2)CC1(O)C(F)(F)C(F)(F)F (centres undefined) | 6.4 | -1 | 3% | 1 | -1% | 8
O=C(NCCSc1ccccc1)c1ccccc1F | 1.0 | -2 | 5% | -3 | 16% | 2
Nc1cc(=O)[nH]c(SCC(=O)Nc2ccc(N3CCOCC3)cc2)n1 | -1.5 | -6 | 2% | -2 | -20% | .
COc1ccc(OC)c(N2C(N)=NC(N)=NC23CCCC3)c1 | -0.6 | -5 | 2% | -1 | 0% | 3
O=C(NNC(=O)c1ccc([N+](=O)[O-])o1)c1ccccc1 | -3.1 | -28 | 12% | -4 | 26% | -2
Cc1cc(O)c(/C=N/Nc2ccc(F)cc2)c(=O)o1 | -8.7 | -1 | -17% | 11 | -23% | 0
O=C(Cn1c(=O)oc2cc(S(=O)(=O)N3CCCC3)ccc21)NC1CCCc2ccccc21 (centres undefined) | -5.8 | -8 | 6% | -3 | -13% | 0
CC(Sc1nc2ccccc2n1C)C(=O)NC(c1ccccc1)c1ccccc1 (centres undefined) | -2.5 | -10 | -15% | 1 | ? | 5
CCOC(=O)N1CCN(C(=O)CN(c2cccc(C(F)(F)F)c2)S(=O)(=O)c2ccccc2)CC1 | 0.1 | 20 | -5% | 2 | ? | -8
O=C(CSc1nnc(NC(=O)C2CC2)s1)Nc1ccccc1 | 0.6 | -4 | -2% | 6 | -46%[inhibitor] | 4
O=C(CN(Cc1ccccc1F)S(=O)(=O)c1ccc(Cl)cc1)NCCCO | -3.5 | 0 | 3% | -3 | 13% | 3
COc1ccc(/C=C2\S/C(=N/S(=O)(=O)c3cccs3)NC2=O)cc1 | -1.7 | -1 | -10% | 13 | 0%[15.4 µM] | 3
COc1ccc(N(CC(=O)NCc2ccco2)C(=O)CCC(=O)Nc2ccccn2)cc1 | -4.8 | -19 | 8% | -23 | -8%[15.4 µM] | -3
Nc1nc2ccc(C(=O)Nc3ccccc3)cc2s1 | 0.4 | -16 | -1% | -15 | 4% | -25
O=C(/C=C/c1ccccc1)NC(=S)Nc1ncccn1 | -7.0 | -15 | -4% | -3 | -25% | .
CC(=O)N(C)C[C@@H]1Oc2ncc(C#Cc3ccc(F)cc3)cc2C(=O)N([C@@H](C)CO)C[C@H]1C | -5.8 | -3 | . | 0 | 29% | -23

Additional results:
SMILES | D2 agonist | D2 potentiator | gsp antagonist | Six1-Eya2 inh | gsp ag | CtBP-E1A blk
C=CCNc1nc2cc(-c3ccccc3C)sc2c(=O)n1C | -2.8 | -6 | . | 3 | . | 9
CSc1ccccc1NC(=O)COC(=O)Cc1ccsc1 | 1.2 | 6 | 8% | 11 | ? | 23
COc1ccc(CNC(=O)c2cn(Cc3ccc(S(=O)(=O)N(C)C)cc3)c(=O)s2)cc1 | 0.8 | 2 | . | 6 | . | -19
O=C(C[n+]1cccc(NC(=O)c2ccccc2)c1)c1ccc(NC(=O)c2ccccc2)cc1 | -2.8 | -26 | 0% | -7 | -9% | -7
Cc1cc(NC(=NC2CC2)c2ccccc2)n(-c2ccccc2)n1 | -4.2 | 1 | . | -8 | -12%[15.4 µM] | 0
O=C(c1ccc(N2CCN(C(=O)c3ccccc3)CC2)cc1)c1cccc(F)c1 | -1.4 | -1 | ? | 4 | 11% | 6
COc1cc(C(=O)OCCN2CCOCC2)cc(OC)c1OC | 0.4 | -12 | 13% | 9 | -31%[inhibitor] | 9
Oc1c(C(c2cccs2)N2CCN(c3cccc(Cl)c3)CC2)sc2ncnn12 (centres undefined) | -1.6 | -4 | -19% | -2 | -32%[inhibitor] | -12
Cc1ccccc1NC(=S)NNC(=O)c1csc2c1CCC(C)C2 (centres undefined) | -7.3 | -19 | -22% | -10 | 1% | -5
COC(=O)N/N=C/c1cc(Cl)c(OCc2ccc(F)cc2)c(OC)c1 | ? | -1 | -6% | 7 | -12% | -9
COc1ccc(CCNc2ncnc3c2nnn3Cc2ccccc2)cc1 | 0.0 | 11 | -6% | -7 | 34%[15.4 µM] | 4
O=C(c1ccco1)N1CCCC(c2nc3c(nnn3Cc3ccc(Cl)cc3Cl)c(=O)[nH]2)C1 (centres undefined) | -1.7 | -3 | -26% | -14 | 8%[15.4 µM] | 0
COc1cc2c(C(=O)N3CCN(c4ccccc4F)CC3)cn(C)c(=O)c2cc1OC | -1.7 | -8 | 9% | 4 | 4% | 2
CCOc1ccc(CCNC(=O)C2CCN(c3nnc(-n4cccc4)s3)CC2)cc1 | -0.1 | -7 | -3% | 6 | -1% | -7
COCCNC(=O)/C(C#N)=C/C=C/c1ccccc1 | -1.7 | 4 | -8% | 0 | 21% | -1
Cc1ccc(NC(=O)CSc2nnc(-c3ccncc3)n2C)cc1C | -1.2 | -6 | 0% | -2 | ? | 5
COc1cc(NC(=O)c2ccc(S(=O)(=O)N(C)c3ccccc3OC)cc2)cc(OC)c1 | 1.6 | -4 | -18% | -30 | ? | -8
CN(C(=O)Cn1cnc2sccc2c1=O)C1CCCCC1 | -5.1 | -3 | 5% | 4 | ? | 1
O=[N+]([O-])c1ccccc1S(=O)(=O)n1nnc2ccccc21 | -0.4 | -6 | 20% | 5 | 19% | 7
COc1ccc(N2CCN(C3CCCN(C(=O)CN4CCOC4=O)C3)CC2)cc1 (centres undefined) | -3.0 | -1 | 2% | 3 | ? | 8
O=C(O)c1nnn(-c2cccc(C(F)(F)F)c2)c1-c1ccccc1 | -1.5 | -3 | 8% | 2 | -16% | 7
C=CC[C@H](CC(=O)NCCO)C(=O)N[C@H](COC(=O)[C@@H](CC=C)Cc1ccc(F)cc1)c1ccccc1 | 1.1 | -7 | 0% | -11 | . | -2
O=[N+]([O-])c1ccc(N2CCN(c3ccc(F)cc3)CC2)cn1 | 3.2 | -3 | -2% | -7 | 5% | 0
O=C(CSc1ncccn1)c1ccccc1Br | -2.6 | -1 | 2% | 7 | 1% | -3
Cc1ccc(CNC(=O)CC[C@H]2O[C@@H](n3cc(C)c(=O)[nH]c3=O)C[C@@H]2O)o1 | -3.2 | 0 | . | 5 | . | 3

Retrieved one by one from the entries so far, 4 records:
SMILES | D2 agonist | D2 potentiator | gsp antagonist | Six1-Eya2 inh | gsp ag | CtBP-E1A blk
Cc1cc(NC(=NC2CC2)c2ccccc2)n(-c2ccccc2)n1 | -4.2 | 1 | . | -8 | -12%[15.4 µM] | 0
CN(C(=O)Cn1cnc2sccc2c1=O)C1CCCCC1 | -5.1 | -3 | 5% | 4 | ? | 1
C=CC[C@H](CC(=O)NCCO)C(=O)N[C@H](COC(=O)[C@@H](CC=C)Cc1ccc(F)cc1)c1ccccc1 | 1.1 | -7 | 0% | -11 | . | -2
COc1ccc(CNC(=O)c2cn(Cc3ccc(S(=O)(=O)N(C)C)cc3)c(=O)s2)cc1 | 0.8 | 2 | . | 6 | . | -19

Full records from above. Order of values: D2 agonist | D2 potentiator | gsp antagonist | Six1-Eya2 inh | gsp ag | CtBP-E1A blk
O=[N+]([O-])c1ccccc1S(=O)(=O)n1nnc2ccccc21 reads -0.4 | -6 | 20% | 5 | 19% | 7
O=C(CSc1ncccn1)c1ccccc1Br reads -2.6 | -1 | 2% | 7 | 1% | -3

The listing picks up; the 2 compounds before the break are reprinted first.
SMILES | D2 agonist | D2 potentiator | gsp antagonist | Six1-Eya2 inh | gsp ag | CtBP-E1A blk
O=C(CSc1ncccn1)c1ccccc1Br | -2.6 | -1 | 2% | 7 | 1% | -3
Cc1ccc(CNC(=O)CC[C@H]2O[C@@H](n3cc(C)c(=O)[nH]c3=O)C[C@@H]2O)o1 | -3.2 | 0 | . | 5 | . | 3
O=C1CNC(=S)N1CCc1ccccc1Cl | 2.1 | 0 | 0% | 3 | 7% | 7
CCOc1ccc(C(=O)Nc2nnc(S(=O)(=O)N(C)Cc3ccco3)s2)cc1 | -3.8 | -16 | 4% | 2 | 27% | -5
COc1ccc([C@H]2C[C@H](n3cc(COC(=O)c4ccccc4)nn3)[C@@H](O)CN2Cc2cccs2)cc1 | -7.9 | 3 | . | -6 | -73% | -10
Cc1ccc(CNC(=O)c2ccccc2NS(=O)(=O)c2ccc(Cl)nc2)cc1 | -2.1 | 7 | -12% | -2 | 10% | 1
O=C(Nc1ccccc1N1CCCCC1)c1ccc(OC(F)F)cc1 | 4.4 | -2 | -10% | 1 | 11% | 10
O=C(COc1ncnc2sccc12)N1CCN(c2ccccc2)CC1 | -2.9 | -13 | 4% | -1 | 0% | .
CC(=O)c1cnn(-c2cc(Oc3cccc(C)c3)ncn2)c1C | -1.9 | -2 | -5% | 25 | -19% | 7

An excerpt from above in order of length of the SMILES, rising:
SMILES | D2 agonist | D2 potentiator | gsp antagonist | Six1-Eya2 inh | gsp ag | CtBP-E1A blk
O=C(Nc1ccccc1N1CCCCC1)c1ccc(OC(F)F)cc1 | 4.4 | -2 | -10% | 1 | 11% | 10
CC(=O)c1cnn(-c2cc(Oc3cccc(C)c3)ncn2)c1C | -1.9 | -2 | -5% | 25 | -19% | 7
Cc1ccc(CNC(=O)c2ccccc2NS(=O)(=O)c2ccc(Cl)nc2)cc1 | -2.1 | 7 | -12% | -2 | 10% | 1
